UUG fidelity – alters start codon recognition fidelity in yeast | S. cerevisiae UUG-firefly luciferase reporter, luminescence/redox ratio | activity score, % at 18.7 µM | 350,000 compounds, 0.13% hits;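 active means replicate mean at a twofold rise or more, about +100% in these data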;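 further: firefly luciferase made from a UUG start codon reports start codon fidelity; reporter light over untreated wells divided by growth signal over untreated wells; some hits fall short of that in this replicate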
Active calls of the source: *.

UUG fidelity,SMILES
-15.9,C[C@@H]1CN([C@@H](C)CO)C(=O)c2cccc(NC(=O)c3ccncc3)c2O[C@@H]1CN(C)C(=O)Nc1ccc2c(c1)OCO2
-1.6,COc1ccc(CNC(=O)C[C@H]2C[C@@H]3c4cc(NC(=O)NC5CCCC5)ccc4O[C@@H]3[C@H](CO)O2)cc1
5.7,CCC(=O)N1CCCCN2[C@H](CO)[C@H](c3ccc(/C=C/c4ccccc4)cc3)[C@H]2C1
-9.9,C[C@@H]1CN([C@@H](C)CO)C(=O)Cc2cc(NC(=O)Nc3ccccc3)ccc2O[C@@H]1CN(C)C(=O)NC1CCCCC1
6.2,Cc1ccccc1NC(=O)Nc1ccc2c(c1)C(=O)N(C)[C@H]1CC[C@H](CC(=O)NCC3CC3)O[C@@H]1CO2
-14.0,COc1ccc(S(=O)(=O)N2CC[C@@H]3[C@@H](CO)N(C)c4ccc(-c5ccccc5F)cc4[C@@H]32)cc1
14.9,O=C(c1ccc2c(c1)OCO2)N1CCCCN2[C@H](CO)[C@H](c3ccc(-c4ccccc4)cc3)[C@@H]2C1
-0.9,O=C(C[C@H]1CC[C@H]2[C@@H](COC[C@@H](O)CN2Cc2cc(F)ccc2F)O1)NCc1ccccc1
-5.0,C[C@H]1CN([C@@H](C)CO)C(=O)c2cc(NC(=O)Nc3ccc(C(F)(F)F)cc3)ccc2O[C@H]1CN(C)C(=O)Nc1ccccc1
-2.1,CCC(=O)N1C[C@@H](C)[C@@H](OC)CN(C)C(=O)c2cc(NS(C)(=O)=O)ccc2OC[C@H]1C
-19.2,CO[C@H]1CN(C)C(=O)c2ccc(NC(=O)c3cc(C)on3)cc2OC[C@H](C)N(CC2CC2)C[C@@H]1C
-0.4,CO[C@H]1CN(C)C(=O)c2cc(NC(=O)c3nc4ccccc4s3)ccc2OC[C@H](C)N(Cc2cccnc2)C[C@@H]1C
-12.3,Cc1noc(C)c1NC(=O)Nc1ccc2c(c1)C(=O)N([C@@H](C)CO)C[C@@H](C)[C@@H](CN(C)C(=O)NC(C)C)O2
6.0,Cc1ccc(S(=O)(=O)N(C)C[C@H]2Oc3c(NC(=O)NC(C)C)cccc3C(=O)N([C@H](C)CO)C[C@H]2C)cc1
10.9,CN(C)C(=O)[C@@H]1[C@@H](CO)[C@@H]2Cn3c(ccc(-c4ccccc4)c3=O)[C@H]1N2CCc1ccccc1
9.0,C[C@@H]1CN([C@H](C)CO)C(=O)Cc2cc(NS(=O)(=O)c3ccccc3)ccc2O[C@H]1CN(C)C(=O)Nc1ccc(F)cc1

An excerpt of these results, comma-delimited:
SMILES,UUG fidelity
CCC(=O)N1C[C@@H](C)[C@@H](OC)CN(C)C(=O)c2cc(NS(C)(=O)=O)ccc2OC[C@H]1C,-2.1
Cc1ccc(S(=O)(=O)N(C)C[C@H]2Oc3c(NC(=O)NC(C)C)cccc3C(=O)N([C@H](C)CO)C[C@H]2C)cc1,6.0
CN(C)C(=O)[C@@H]1[C@@H](CO)[C@@H]2Cn3c(ccc(-c4ccccc4)c3=O)[C@H]1N2CCc1ccccc1,10.9
C[C@H]1CN([C@@H](C)CO)C(=O)c2cc(NC(=O)Nc3ccc(C(F)(F)F)cc3)ccc2O[C@H]1CN(C)C(=O)Nc1ccccc1,-5.0

Next entries follow.
UUG fidelity,SMILES
-13.2,O=C(C1CCCCC1)N1C[C@@H]2[C@H](c3ccccc31)[C@H](CO)N2CC1CCOCC1
47.3,CN1CCN(C(=O)C[C@@H]2C[C@@H]3c4cc(NC(=O)CC5CC5)ccc4O[C@@H]3[C@@H](CO)O2)CC1
1.8,C[C@@H]1CN([C@@H](C)CO)C(=O)Cc2cc(NC(=O)C3CCCCC3)ccc2O[C@@H]1CN(C)S(=O)(=O)c1ccc(F)cc1
-1.4,O=C(Nc1cccc(F)c1)N1CCCCN2[C@H](C1)[C@H](c1ccc(C#Cc3cccnc3)cc1)[C@@H]2CO
-6.5,CCC(=O)N1CC[C@@H]2[C@@H](CO)Nc3ccc(-c4ccc(F)cc4)cc3[C@@H]21
-3.2,C/C=C/c1ccc([C@H]2[C@@H](CO)N3CCCCN(S(=O)(=O)c4ccccc4)C[C@@H]23)cc1
-6.5,COc1ccccc1CN1[C@H](CO)[C@@H]2c3ccccc3N(C(=O)C3CCOCC3)C[C@@H]21
-3.9,CN1CCCCN2[C@H](CO)[C@H](c3ccc(C4=CCCC4)cc3)[C@H]2C1
-3.6,Cc1cc(C(=O)Nc2cccc3c2O[C@H](CN(C)S(=O)(=O)c2cccs2)[C@@H](C)CN([C@@H](C)CO)C3=O)n(C)n1
-11.0,N#Cc1ccc(-c2ccc3c(c2)[C@H]2[C@H](CCN2C(=O)C2CC2)[C@H](CO)N3)cc1
-5.5,COc1cccc(NC(=O)C[C@@H]2CC[C@H]3[C@H](COc4ccc(NC(=O)c5ccccc5F)cc4C(=O)N3C)O2)c1
8.1,O=C(CC1CC1)Nc1ccc2c(c1)[C@@H]1C[C@H](CC(=O)N3CCc4ccccc4C3)O[C@H](CO)[C@@H]1O2
12.9,C[C@@H](O)C#Cc1ccc([C@H]2[C@H](CO)N3CCCCN(C(=O)Nc4ccccc4)C[C@@H]23)cc1
-23.8,CO[C@H]1CN(C)C(=O)c2ccc(NS(C)(=O)=O)cc2OC[C@H](C)NC[C@H]1C
3.4,COC(=O)C[C@@H]1CC[C@@H]2[C@H](COc3ccc(NC(=O)c4cscn4)cc3C(=O)N2C)O1
-10.4,COc1cccc(-c2ccc3c(c2)[C@H]2[C@H](CCN2C(=O)CN2CCOCC2)[C@H](CO)N3)c1
-25.7,C[C@@H]1CN([C@H](C)CO)C(=O)c2cccc(NS(=O)(=O)c3cccs3)c2O[C@@H]1CN(C)Cc1ccncc1
6.4,C[C@@H]1CN([C@H](C)CO)C(=O)Cc2cc(NS(=O)(=O)c3cn(C)cn3)ccc2O[C@H]1CN(C)Cc1ccncc1
-19.0,O=C(NC[C@H]1[C@H](c2ccccc2)[C@H](CO)N1Cc1ccccn1)C1CCCC1
-15.2,CN1c2ccc(-c3ccc(F)cc3)cc2[C@@H]2[C@@H](CCN2C(=O)Nc2ccc(F)cc2)[C@@H]1CO
4.9,Cc1cccc(-c2ccc([C@H]3[C@@H](CO)N4CCCCN(C(=O)NC(C)C)C[C@@H]34)cc2)c1
6.4,CN1C(=O)c2cc(NC(=O)c3ccccc3)ccc2OC[C@@H]2O[C@@H](CC(=O)NC3CCCC3)CC[C@H]21
-20.5,C[C@@H]1CN([C@@H](C)CO)C(=O)c2cc(NC(=O)CCN3CCOCC3)ccc2O[C@H]1CN(C)Cc1ccc(C(=O)Nc2ccccc2N)cc1
-7.0,C[C@H]1CN([C@@H](C)CO)C(=O)c2cc(NC(=O)CCN3CCOCC3)ccc2O[C@@H]1CN(C)S(=O)(=O)c1cn(C)cn1
1.5,COc1ccc(NC(=O)N(C)C[C@@H]2OCc3ccccc3-c3ccccc3C(=O)N([C@H](C)CO)C[C@H]2C)c(OC)c1
15.4,O=C(C1CCCC1)N1[C@H](CO)[C@H]2c3ccccc3N(S(=O)(=O)c3ccccc3)C[C@H]21
-14.4,O=C(Nc1ccc(F)cc1)N1CCCCN2[C@H](CO)[C@H](c3ccc(-c4ccncc4)cc3)[C@H]2C1
-0.8,CCCNC(=O)N1C[C@@H](C)[C@@H](OC)CN(C)C(=O)c2cc(NC(C)=O)ccc2OC[C@H]1C
16.3,CC(C)[C@H](C)NC(=O)N(C)C[C@@H]1OCc2ccccc2-c2c(n(C)c3ccccc23)C(=O)N([C@H](C)CO)C[C@@H]1C
-4.8,CO[C@@H]1CN(C)C(=O)c2ccc(NC(=O)C3CCOCC3)cc2OC[C@@H](C)N(CC2CC2)C[C@H]1C
3.0,C[C@@H]1CN([C@@H](C)CO)C(=O)c2cc(NC(=O)CCCN(C)C)ccc2O[C@@H]1CN(C)C(=O)Nc1cccc2ccccc12
-7.9,O=S(=O)(c1ccccc1F)N1CCCCN2[C@H](CO)[C@H](c3ccc(-c4cncnc4)cc3)[C@@H]2C1

Four structures out of the list, ordered by length of the SMILES, descending:
UUG fidelity,SMILES
16.3,CC(C)[C@H](C)NC(=O)N(C)C[C@@H]1OCc2ccccc2-c2c(n(C)c3ccccc23)C(=O)N([C@H](C)CO)C[C@@H]1C
-7.9,O=S(=O)(c1ccccc1F)N1CCCCN2[C@H](CO)[C@H](c3ccc(-c4cncnc4)cc3)[C@@H]2C1
-14.4,O=C(Nc1ccc(F)cc1)N1CCCCN2[C@H](CO)[C@H](c3ccc(-c4ccncc4)cc3)[C@H]2C1
-0.8,CCCNC(=O)N1C[C@@H](C)[C@@H](OC)CN(C)C(=O)c2cc(NC(C)=O)ccc2OC[C@H]1C

Next results follow.
UUG fidelity,SMILES
-14.2,CO[C@@H]1CN(C)C(=O)c2cc(NS(=O)(=O)CC(F)(F)F)ccc2OC[C@H](C)N(Cc2ccccn2)C[C@H]1C
17.7,C[C@H](CO)N1C[C@H](C)[C@H](CN(C)S(=O)(=O)c2cn(C)cn2)Oc2c(NS(C)(=O)=O)cccc2C1=O
-5.7,CCCNC(=O)N1C[C@@H]2[C@H](c3ccccc31)[C@H](CO)N2C(=O)NCCC
-6.7,CO[C@@H]1CN(C)C(=O)c2cc(NS(=O)(=O)CC(F)(F)F)ccc2OC[C@@H](C)N(Cc2ccccn2)C[C@H]1C
1.6,CO[C@H]1CN(C)C(=O)c2cc(NS(C)(=O)=O)ccc2OC[C@H](C)N(CC2CCCCC2)C[C@@H]1C
5.0,CCC(=O)N(C)C[C@H]1[C@H](c2ccc(C3=CCCCC3)cc2)[C@@H](CO)N1C(=O)CC
-15.5,CO[C@H]1CN(C)C(=O)c2cc(NS(=O)(=O)CC(F)(F)F)ccc2OC[C@H](C)N(Cc2ccccn2)C[C@H]1C
-15.8,CCS(=O)(=O)Nc1ccc2c(c1)C(=O)N(C)C[C@@H](OC)[C@@H](C)CN(C(=O)C1CC1)[C@@H](C)CO2
-15.9,OC[C@@H]1[C@H](c2ccc(-c3ccc(F)cc3)cc2)[C@@H]2CN(Cc3cccnc3)CCCCN12
-12.9,O=S(=O)(c1cccc(F)c1)N1CC[C@@H]2[C@H]1c1cc(C#Cc3cccc(F)c3)ccc1N[C@@H]2CO
-0.7,C[C@@H]1CN([C@H](C)CO)C(=O)c2cc(NC(=O)CCN3CCOCC3)ccc2O[C@@H]1CN(C)C(=O)Nc1ccc(F)cc1
3.9,Cc1noc(C)c1NC(=O)Nc1cccc2c1O[C@@H](CN(C)S(=O)(=O)c1cccs1)[C@H](C)CN([C@H](C)CO)C2=O
-7.0,COc1cccc(C(=O)Nc2ccc3c(c2)C(=O)N(C)[C@@H]2CC[C@@H](CC(=O)N[C@H](C)c4ccccc4)O[C@@H]2CO3)c1
7.1,CC(=O)N1[C@H](CO)[C@H](c2ccccc2)[C@@H]1CN(C(=O)c1ccccc1)C(C)C
10.9,O=C(C1CC1)N1CCCCN2[C@H](C1)[C@H](c1ccc(C#CC3CC3)cc1)[C@@H]2CO
2.3,O=C(Nc1cc(F)ccc1F)N1CCCCN2[C@H](CO)[C@H](c3ccc(C4=CCCCC4)cc3)[C@@H]2C1
3.6,CO[C@@H]1CN(C)C(=O)c2cc(NC(=O)C3CC3)ccc2OC[C@@H](C)N(CC2CC2)C[C@@H]1C
18.7,Cc1ccc(S(=O)(=O)N(C)C[C@@H]2Oc3ccc(NC(=O)Cc4ccccc4)cc3C(=O)N([C@H](C)CO)C[C@H]2C)cc1
-13.0,O=C(Nc1cc(F)ccc1F)N1C[C@@H]2[C@H](c3ccccc31)[C@H](CO)N2Cc1ccncc1
1.1,C[C@@H]1CN([C@@H](C)CO)C(=O)c2cccc(NS(=O)(=O)c3cn(C)cn3)c2O[C@@H]1CN(C)C(=O)Nc1ccc(C(F)(F)F)cc1
-4.0,C[C@H](CO)N1C[C@H](C)[C@@H](CN(C)S(=O)(=O)c2ccc(Cl)cc2)Oc2ccc(NC(=O)c3ccncc3)cc2CC1=O
0.6,C[C@@H]1CN([C@H](C)CO)C(=O)Cc2cc(NC(=O)C3CC3)ccc2O[C@H]1CN(C)S(=O)(=O)c1ccc(Cl)cc1
-5.2,CC(=O)N1[C@H](CO)[C@@H](c2ccccc2)[C@H]1CN(C(=O)c1ccccc1)C(C)C
8.5,C[C@@H]1CN([C@@H](C)CO)C(=O)c2cc(NC(=O)CCC(F)(F)F)ccc2O[C@H]1CN(C)S(=O)(=O)c1cn(C)cn1
-4.9,C[C@H](CO)N1C[C@H](C)[C@H](CN(C)CC2CCCCC2)Oc2ccc(NC(=O)NC3CCCCC3)cc2C1=O
-11.3,O=S(=O)(NC[C@@H]1N[C@@H](CO)[C@@H]1c1ccccc1)c1ccccc1
20.5,CC=Cc1ccc2n(c1=O)C[C@@H]1[C@@H](CO)[C@H](C(=O)NCC(F)(F)F)[C@H]2N1C(=O)C1CCC1 (mixture of isomers)
13.8,CCC(=O)NC[C@H]1[C@H](c2ccc(C3=CCCC3)cc2)[C@@H](CO)N1C(C)=O
-13.7,CCS(=O)(=O)Nc1ccc2c(c1)C(=O)N(C)[C@@H]1CC[C@H](CC(=O)OC)O[C@H]1CO2
1.6,CNC(=O)C[C@@H]1CC[C@@H]2[C@H](COC[C@H](O)CN2Cc2ccncc2)O1
-4.7,Cc1noc(C)c1S(=O)(=O)Nc1cccc2c1O[C@@H](CN(C)C(=O)NC1CCCCC1)[C@@H](C)CN([C@@H](C)CO)C2=O
-9.6,C[C@@H]1CN([C@H](C)CO)C(=O)c2cccc(N(C)C)c2O[C@H]1CN(C)S(=O)(=O)c1ccccc1
-3.4,CN1c2ccc(-c3cccc(F)c3)cc2[C@H]2[C@H](CCN2C(=O)C2CC2)[C@@H]1CO
6.5,CCCNC(=O)Nc1ccc2c(c1)OC[C@@H](C)N(C(=O)C1CCCCC1)C[C@H](C)[C@@H](OC)CN(C)C2=O
7.4,O=C(C1CCC1)N1C[C@H]2[C@@H](c3ccccc31)[C@@H](CO)N2Cc1ccccc1
-37.3,O=C(NC[C@H]1[C@@H](c2ccccc2)[C@@H](CO)N1Cc1ccccn1)C1CCC1
-12.0,COC(=O)C[C@H]1CC[C@@H]2[C@@H](COc3ccc(NC(=O)c4cnccn4)cc3C(=O)N2C)O1

Looked up above:
`O=C(NC[C@H]1[C@@H](c2ccccc2)[C@@H](CO)N1Cc1ccccn1)C1CCC1` – UUG fidelity = -37.3
`CN1c2ccc(-c3cccc(F)c3)cc2[C@H]2[C@H](CCN2C(=O)C2CC2)[C@@H]1CO` – UUG fidelity = -3.4

Screening results: PubChem, Broad Institute

The list is partial, so the mix of outcomes need not match the whole.
